# VDR inh: inhibitors of human vitamin D receptor. Potency, µM, for inactives: max response, negative = inhibition, most hits filed as inhibitors. 0.93% of 400,000 active. AID 504847. VDR-SRC2-3 peptide fluorescence polarization, 2 h. P11473; active = well fitted inhibition curve with a large enough effect; inconclusive = small, poorly fitted or top-dose-only effect, or another doubt; inactive = no such curve, though single readings can be large or run the other way; note: series mostly up to about 120 µM
# Target sequence (P11473 whole entry, looked up): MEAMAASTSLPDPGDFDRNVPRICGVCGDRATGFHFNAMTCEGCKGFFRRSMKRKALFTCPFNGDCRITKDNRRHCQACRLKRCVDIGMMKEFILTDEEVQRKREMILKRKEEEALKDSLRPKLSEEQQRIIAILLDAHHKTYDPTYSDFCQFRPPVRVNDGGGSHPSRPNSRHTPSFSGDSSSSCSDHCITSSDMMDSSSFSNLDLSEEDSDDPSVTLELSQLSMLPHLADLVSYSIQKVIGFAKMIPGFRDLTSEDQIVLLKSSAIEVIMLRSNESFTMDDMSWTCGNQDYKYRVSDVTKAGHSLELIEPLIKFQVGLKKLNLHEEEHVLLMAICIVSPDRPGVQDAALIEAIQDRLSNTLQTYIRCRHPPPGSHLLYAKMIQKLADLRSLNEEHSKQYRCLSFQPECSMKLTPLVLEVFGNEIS
#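 Inhibition of the VDR/SRC2-3 peptide interaction is quantified by fluorescence polarization. Compounds (23 nl, pintool) incubate with the reagents for 2 hours at ambient room temperature.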
# Starred values were filed as active, the others as inactive; ? = inconclusive; & = joins results of further samples. % is set by controls: 0 for no effect and ±100 for the full control effect; potency is the fitted concentration of half-maximal effect.
VDR inh	canonical_smiles
-7%	Cc1ccc(OCC(=O)Nn2cnnc2)c(Br)c1
-7%	O=[N+]([O-])/C(C(Cl)=C(Cl)Cl)=C1\Nc2ccccc2O1
-5%	CCOC(=O)C1CCCN(C(=O)c2sc3nc(C)nc(N4CCOCC4)c3c2C)C1 (centres undefined)
-2%	Fc1ccccc1N1CCN(CCCc2ccccc2)CC1
6%	COc1ccc(CNC(=S)N/N=C/c2ccncc2)cc1
-25%	COc1ccc(-c2[nH]ncc2/C=N\NS(=O)(=O)c2ccccc2)cc1OC
-18%	CC/C(=N/Nc1ccc(Cl)cc1)c1cnnc(SC)n1
11%	Cc1ccccc1CNC(=O)Cn1ccc2cc(S(=O)(=O)N3CCCCC3)ccc21
8%	CC1(C)Cc2c(c(-c3ccccc3)nc(N3CCOCC3)c2C(N)=O)CO1
-16%	CC(C)/C=C1\CC/C(=C\c2cccnc2)C1=O
-2%	N#Cc1c(/N=C/c2cccnc2)sc2c1CCCC2
9%	Cc1ccc(C)c(S(=O)(=O)Nc2ccc3cn[nH]c3c2)c1
13%	CC(C)N(Cc1ccccc1)C(=O)COC(=O)c1cc(S(=O)(=O)N(C)C)ccc1N1CCCC1
-20%	O=C1/C(=C/c2ccco2)Cc2ccccc21
1%	COc1ccc(NC(=O)c2ccco2)cc1NC(=O)c1ccco1
-15%&-1%&-25%&-17%	CC(C)=CCC/C(C)=C/COc1ccc2ccc(=O)oc2c1
-7%	CC(C(=O)NC1CCCCCC1)N(c1ccccc1)S(C)(=O)=O (centres undefined)
-5%	CCOC(=O)c1ccc(S(=O)(=O)Nc2cc(S(=O)(=O)Nc3ccc(OC)cc3)ccc2O)cc1
-1%	O=C(NCc1cn2ccccc2n1)C1CCC(=O)N(Cc2ccccc2F)C1 (centres undefined)
5%	CCOC(=O)C(CC)n1nc(C)c2c(C)n(-c3ccc(C)cc3)nc2c1=O (centres undefined)
-4%	COc1ccc(C(=O)NNC(=O)CSc2nnc(C3CC3)n2C)cc1
?	Cc1ccc2nc(SCC(=O)N(C)C3CCS(=O)(=O)C3)[nH]c2c1 (centres undefined)
11%	NS(=O)(=O)c1ccc(CCNC(=O)c2ccc(S(=O)(=O)N3CCCCC3)cc2)cc1
-15%	CCOC(=O)C(=CNc1ccc(OC)cc1[N+](=O)[O-])C(=O)OCC
5%	CC1(C)CC2(CC(c3ccccc3)Oc3cc(O)ccc32)NC(=S)N1 (centres undefined)
0%	COc1ccc(CCNCc2c(OC)ccc3ccccc23)cc1OC
-11%	O=C(CCCOc1ccccc1)NC(=S)Nc1ccccc1
-11%	O=C(NCCCN1CCC(Cc2ccccc2)CC1)C1CCN(S(=O)(=O)N2CCC3(CC2)OCCO3)CC1
-10%	CCc1nnc(NC(=O)CSc2ccc(-c3nc4ccccc4[nH]3)cn2)s1
50µM*	CN1CCN(C2=C(Cl)C(=O)C(c3cnc(N4CCCCC4)s3)=C(Cl)C2=O)CC1
-2%	CCc1cc(=O)oc2cc(C)cc(OC(C)C(=O)NCCCN3CCOCC3)c12 (centres undefined)
-6%	O=C(CC(=O)c1ccccn1)c1ccccc1
-7%	Cc1ccc(C(=O)Nn2cnnc2)cc1Cl
8%	COC(=O)c1ccn(C(=O)c2ccc(Cl)cc2)n1
-6%	COc1cc(NC(=O)C(C)Oc2ccccc2)cc(OC)c1 (centres undefined)
-9%	O=C(NC1CCCC1)c1cc(S(=O)(=O)N2CCCC2)ccc1Cl
-6%	COc1ccc(C2C(C#N)=C(N)Oc3c2sc2nc(C)cc(C)c32)cc1 (centres undefined)
-26%	CN(C)CCCN(Cc1ccccc1)C(=S)Nc1ccc(OC(F)F)cc1
-3%	CC(C)NC(=O)C(=O)Nc1ccc2c(c1)N(S(=O)(=O)c1cccs1)CCC2
?	CCN1C(=O)/C(=C\N(C(C)=O)c2ccccc2)OC1=S
-8%	C=CCNC(=S)N/N=C/c1ccc(N(CC)Cc2ccccc2)cc1
-3%	Cc1ccc(NC(=S)NCCC(c2ccccc2)c2ccccc2)c(C)c1
20%	COc1ccc(OC)c(C(C)NC(=O)C23CC4CC(CC(C4)C2)C3)c1 (centres undefined)
-9%	CC(=O)Nc1ccc(/C=N\NC(=O)CNS(=O)(=O)c2ccc([N+](=O)[O-])cc2)cc1
-20%	CCSc1nnc2c(n1)OC(c1ccc(OC)cc1OC)N(C(C)=O)c1ccccc1-2 (centres undefined)
8%	CCCS(=O)(=O)Nc1cc(-c2cn3cccc(C)c3n2)ccc1C
7%	O=C(COC(=O)c1ccc([N+](=O)[O-])o1)Nc1cccc2ccccc12
0%	CCOC(=O)c1ccc(NC(=O)c2ccco2)cc1

# A portion taken from the entries so far:
VDR inh	canonical_smiles
-11%	O=C(NCCCN1CCC(Cc2ccccc2)CC1)C1CCN(S(=O)(=O)N2CCC3(CC2)OCCO3)CC1
-10%	CCc1nnc(NC(=O)CSc2ccc(-c3nc4ccccc4[nH]3)cn2)s1
50µM*	CN1CCN(C2=C(Cl)C(=O)C(c3cnc(N4CCCCC4)s3)=C(Cl)C2=O)CC1
-2%	CCc1cc(=O)oc2cc(C)cc(OC(C)C(=O)NCCCN3CCOCC3)c12 (centres undefined)
-6%	O=C(CC(=O)c1ccccn1)c1ccccc1
-7%	Cc1ccc(C(=O)Nn2cnnc2)cc1Cl
8%	COC(=O)c1ccn(C(=O)c2ccc(Cl)cc2)n1
-6%	COc1cc(NC(=O)C(C)Oc2ccccc2)cc(OC)c1 (centres undefined)
-9%	O=C(NC1CCCC1)c1cc(S(=O)(=O)N2CCCC2)ccc1Cl
-6%	COc1ccc(C2C(C#N)=C(N)Oc3c2sc2nc(C)cc(C)c32)cc1 (centres undefined)
-26%	CN(C)CCCN(Cc1ccccc1)C(=S)Nc1ccc(OC(F)F)cc1
-3%	CC(C)NC(=O)C(=O)Nc1ccc2c(c1)N(S(=O)(=O)c1cccs1)CCC2
?	CCN1C(=O)/C(=C\N(C(C)=O)c2ccccc2)OC1=S
-8%	C=CCNC(=S)N/N=C/c1ccc(N(CC)Cc2ccccc2)cc1
-3%	Cc1ccc(NC(=S)NCCC(c2ccccc2)c2ccccc2)c(C)c1
20%	COc1ccc(OC)c(C(C)NC(=O)C23CC4CC(CC(C4)C2)C3)c1 (centres undefined)
-9%	CC(=O)Nc1ccc(/C=N\NC(=O)CNS(=O)(=O)c2ccc([N+](=O)[O-])cc2)cc1
-20%	CCSc1nnc2c(n1)OC(c1ccc(OC)cc1OC)N(C(C)=O)c1ccccc1-2 (centres undefined)
8%	CCCS(=O)(=O)Nc1cc(-c2cn3cccc(C)c3n2)ccc1C
7%	O=C(COC(=O)c1ccc([N+](=O)[O-])o1)Nc1cccc2ccccc12

# Additional structures follow:
VDR inh	canonical_smiles
-10%	CN1CC(=O)Nc2ccccc2C1=O
7%	O=C(O)CC1(CC(=O)N2CCC(C(=O)O)CC2)CCCC1
15%	CCOC(=O)NC1(C(F)(F)F)C(=O)N(Cc2ccccn2)C2=C1C(=O)CC(C)(C)C2 (centres undefined)
-1%	O=C(c1cccs1)N1CCC(c2nc3c(nnn3Cc3ccccc3)c(=O)[nH]2)CC1
-21%	O=C(Cn1cc(C(F)(F)F)cc(Cl)c1=O)NCc1ccc(Cl)cc1
?	Cc1cc(C)nc(NN=CC2=C(N3CCOCC3)/C(=C/c3ccc(Cl)cc3)CC2)n1
-7%	CCC(=O)Nc1nnc(SCC(=O)Nc2ccc3c(c2)OCCO3)s1
56µM*	CCOC(=O)c1nc(S(C)(=O)=O)ncc1Cl
8%	COc1ccc(NC(=O)CCC(=O)c2cccs2)cc1S(=O)(=O)Nc1ccccc1Cl
-1%	Cc1ccccc1S(=O)Cc1ccc(C(=O)NCCCN2CCCCC2)o1 (centres undefined)
-9%	COc1ccc(N(CC(=O)NCC2CCCO2)C(=O)CCC(=O)Nc2nccs2)cc1 (centres undefined)
15%	CCCCN(CC)CCCNC(=O)C1CCCN(c2ncnc3c2nc2n3CCCCC2)C1 (centres undefined)
7%	CCCCn1c(=N)c(C(=O)NC2CCCCC2)cc2c(=O)n3cccc(C)c3nc21
-10%	COc1ccc(CCNc2ccc(C(CC(N)=O)NC(=O)Cc3ccc(Br)cc3)cc2[N+](=O)[O-])cc1 (centres undefined)
0%	COC(=O)/C(C#N)=C/c1c(Oc2cc(C)cc(C)c2)nc2ccccn2c1=O
10%	CC(C)C[C@H](NC(=O)c1[nH]cnc1C(=O)N[C@@H](Cc1ccccc1)C(=O)OC(C)(C)C)C(=O)OCc1ccccc1
-24%	CN1CCN(C(=O)CCN2C(=O)/C(=C\c3ccc(F)cc3)SC2=S)CC1
-5%	O=C(NCc1ccccc1)C1=C[C@H](C2CCCCC2)C[C@H](OCCCCO)O1
-16%	CC(=O)Nc1ccc(-c2csc(Nc3ncccn3)n2)cc1
-11%	Cc1ccc(NC(=O)CCC(=O)NNC(=O)CCc2ccccc2)c(C)c1
11%	O=S(=O)(Cc1ccccc1Cl)N1CCN(Cc2ccc3c(c2)OCO3)CC1
-11%	N#Cc1ccc(COC(=O)CN2C(=O)NC3(CCCC3)C2=O)cc1
-7%	CCCCCCC(=O)N/N=C/c1ccco1
1%	CCn1c(SCc2ccccc2)nnc1-c1nonc1NC(C)=O
29%	CCOc1ccc2nc(NC(=O)CN3C(=O)C4CCCCC4C3=O)sc2c1 (centres undefined)
-14%	CCOc1ccc(N2CC(C(=O)Nc3cc(Cl)ccc3-n3cncn3)CC2=O)cc1 (centres undefined)
15%	Cc1ccc(S(=O)(=O)Nc2nc3n(n2)C(c2ccccc2Cl)C=C(c2ccccc2)N3)cc1 (centres undefined)
2%	CCN1CCN(C(=O)C2CC(=O)N(c3ccc(Cl)cc3)C2)CC1 (centres undefined)
-2%	CCOc1ccccc1NC(=O)C(C)Sc1nc(-c2ccccc2)c(C#N)c(=O)[nH]1 (centres undefined)
2%	O=C(CS(=O)(=O)c1cccc(C(F)(F)F)c1)Nc1ccccc1Cl
-7%	N#C/C(=C/c1ccc(O)cc1)C(=O)NCc1ccc(Cl)cc1
-1%	Cc1ccc(NC(=O)CN(C)C(=O)c2cccc(S(=O)(=O)N3CCc4ccccc43)c2)cc1
?	O=C(Nc1ccc(-c2nc3ncccc3o2)cc1)c1ccco1
2%	CCOc1ccc(CN(CCO)CCO)cc1[N+](=O)[O-]
0%	CCOC(=O)Cc1csc(NC(NC(=O)CC)(C(F)(F)F)C(F)(F)F)n1
-13%	COc1ccc(C2CC(c3ccc(Br)cc3)=NN2C(=O)CCC(=O)O)cc1OC (centres undefined)
-3%	COc1ccc(-c2noc(CN3CCCCC3)n2)cc1OC
23%	COc1ccc(Br)c(OC)c1C(=O)NC(=O)Nc1c(F)cccc1F
-2%	CC(C)(O)c1cc2ccccc2c(=O)o1
12%	COc1ccc2cc3cc(C(=O)NCCc4ccc(OC)c(OC)c4)oc3nc2c1
2%	CC(C)N1CCN(Cc2ccoc2)CC1CCO (centres undefined)
7%	Cc1cccc(C(=O)NC(NCc2ccco2)C(Cl)(Cl)Cl)c1 (centres undefined)
6%	CN(CCCCCCCCCCN(C)C(=O)Oc1cccc([N+](C)(C)C)c1)C(=O)Oc1cccc([N+](C)(C)C)c1
6%	COC1CCCCC1Nc1cccc(SC)c1 (centres undefined)
8%	CC(C)NC(=O)NC(=O)COC(=O)c1cc(S(=O)(=O)N2CCCCC2)ccc1N1CCOCC1
-8%	CC(CCc1ccccc1)NC(=O)C1CCN(S(=O)(=O)N2CCOCC2)CC1 (centres undefined)
15%	Cc1ccc(N2CCN(S(=O)(=O)c3cccs3)CC2C)cc1 (centres undefined)
-7%	CCOCCOC(=O)C1=C(C)NC(=O)NC1c1ccc2c(c1)OCO2 (centres undefined)
6%	Fc1ccc(-c2cn3cc(C(F)(F)F)cc(Cl)c3n2)cc1
12%	Cc1ccc(S(=O)(=O)NC(CC(=O)N2CCc3ccccc32)c2ccco2)cc1 (centres undefined)
-8%	O=C(NN1C(=O)NC2(CCCCC2)C1=O)c1cccs1
10%	O=[N+]([O-])c1ccc(Cc2ccccn2)cc1
8%	CCc1nnc(SCC(=O)Nc2ccc(NC(C)=O)cc2)n1-n1cccc1
-9%	COc1ccc(OC)c2c1sc(=NC(=O)c1ccco1)n2C
10%	COc1ccc(C(C)=O)cc1COC(=O)c1cccnc1Cl
2%	Cc1nc2cc(-c3ccccc3)sc2c(=O)n1N
10%	O=C1c2ccccc2C(=O)N1CCCc1nc(-c2ccccc2)no1
-24%	CCOc1ccc(NS(=O)(=O)c2ccc3[nH]c(=O)[nH]c3c2)cc1
-5%	CC1(C)SC[C@H](C(=O)Nc2cccc(Cl)c2)N1C=O
-9%	O=C1NCCN1Cc1ccc(F)cc1

# Next section
VDR inh	canonical_smiles
15%	COCCCn1c(=O)c2sccc2n2c(CCCC(=O)NCc3ccc(OC)cc3)nnc12
-8%	COCCCNc1oc(/C=C/c2ccccc2)nc1C#N
6%	COc1ccc(N(CC(=O)NCCc2ccccc2)C(=O)c2csnn2)cc1OC
-14%	C/C(=N\NC(=O)c1ccc(N2CCCC2=O)cc1)c1ccccc1
2%	CCn1nnc2cc(C(=O)Nc3ccc(Br)cc3F)ccc21
-15%	C/C=C(/C)C(=O)Nc1cccc(C2=NOC3(C2)C[C@@H](C(N)=O)N(C(=O)CC(c2ccccc2)c2ccccc2)C3)c1 (some centres undefined)
21%	CCCC(=O)Nc1ccc(NC(=O)c2ccccn2)cn1
28µM*	CN(C)S(=O)(=O)N1CCC(Oc2cccc(C(=O)NCCCC3CCCC3)c2)CC1
10%	O=C(Nc1ccc(S(=O)(=O)N2CCCCC2c2cccnc2)cc1)c1ccc(F)cc1 (centres undefined)
8%	Cc1ccc(NC(=O)Nc2ccc3c(c2)OCO3)nc1
?	O=C1C=C(Nc2ccccc2C(=O)O)c2ccccc2C1=O
-19%	CCS(=O)(=O)c1ccc2oc(SCC(=O)NC34CC5CC(CC(C5)C3)C4)nc2c1
11%	O=S(=O)(c1ccc(Cl)c(Cl)c1)N1CCc2nc3ccccc3n2CC1
7%	CN1CCC(=NNC(=O)COc2ccc(Cl)cc2)CC1
-28%	CCSc1nc2ccccc2n1CC(=O)O
4%	O=C(COC(=O)C1CC1)NCc1ccccc1Cl
-21%	Cc1ccccc1N1CCN(C(=O)c2cc(C3CC3)nn2-c2ccccc2)CC1
-3%	CCCn1c(SCC(=O)N(CC)CC)nnc1-c1ccncc1

# Only part of the results is shown, so the mix of outcomes need not match the whole.
